# Screening data as filed in PubChem.
# HSD17B inh = blocks hydroxysteroid 17-beta dehydrogenase activity | Q99714 | recombinant HSD17B10, NADH fluorescence kinetic; many of its hits are not listed in these tables | Potency, µM (titrated, usually from 57.1 µM), inactives show at the top dose activity change, negative = inhibition, hits mostly inhibitors | hit rate 7.6% among 75,000; active = well fitted inhibition curve with a large enough effect; inconclusive = small, poorly fitted or top-dose-only effect; inactive = no such curve, though single readings can be large or run the other way;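 note: the protocol describes HADH2 (HSD17B10) and not the HSD17B4 of the title; nearly all actives have a fitted effect of over 70% in size; most hits overshoot -100% by far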
#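 Enzyme plus compound, 15 min room temperature; substrate mix added (NAD+ 1 mM, beta-hydroxybutyryl-CoA 90 uM final); plates read kinetically for NADH fluorescence. HADH2 was His-tagged, E. coli-derived, 20 nM.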
# * marks the source's active call; other numbers are inactive results; ? = inconclusive; [ ] = another dose, or the depositor's remark. % is set by controls: 0 for no effect and ±100 for the full control effect; potency is the fitted concentration of half-maximal effect. Not all compounds are listed (hit frequency here may not be typical).
SMILES,HSD17B inh
O=C(CCCn1c(=O)[nH]c2cc(Cl)ccc2c1=O)NCC1CCCO1 (centres undefined),-13%
COc1ncc2nc(-c3cn(C)c4ccccc34)c(=O)n(CCC#N)c2n1,2%
Cc1cc(C)c2c(=O)[nH]c(SCC(=O)Nc3ccccc3)nc2n1,-26%
COCCn1c(Cc2ccccc2)nnc1SCC(=O)NC(C)C,13%
O=S(=O)(c1cccc(S(=O)(=O)N2CCCC2)c1)c1cccc(S(=O)(=O)N2CCCC2)c1,2%
CCN(CC)C(=O)CSc1nc2ccccc2c(=O)n1CCC(=O)NCc1ccc(F)cc1,-5%
Cc1ccc(-c2cc(-c3cccc(F)c3)n[nH]2)c(O)c1,-23%
CCS(=O)(=O)Nc1ccc(C(=O)OC)cc1,0%
CCOc1ccc2nc(NCCNC(=O)C3CC3)c(C)cc2c1,32µM*
OC1C2COC(O2)[C@H](O)C1O (some centres undefined),4%
Cn1c(=O)c2c(nc(-n3ccnc3)n2C)n(C)c1=O,8%
O=C(NCCN1CCOCC1)c1nn2c(c1Cl)NC(c1ccccc1)CC2C(F)(F)F (centres undefined),7%
COc1ccc(Cl)cc1NC(=O)CSc1nnc(COc2ccccc2)n1C,-9%
Cc1nc(NC(=O)c2oc3ccccc3c2C)sc1C(=O)N(C)C,-7%
CC(C)(C)OC(=O)NCCc1nnc(SCC(N)=O)o1,2%

# 2 records drawn at random from the list so far, as already listed:
SMILES,HSD17B inh
Cc1ccc(-c2cc(-c3cccc(F)c3)n[nH]2)c(O)c1,-23%
O=C(NCCN1CCOCC1)c1nn2c(c1Cl)NC(c1ccccc1)CC2C(F)(F)F (centres undefined),7%

# Further structures:
SMILES,HSD17B inh
CC(=O)c1cc(C(=O)Nc2ccccc2C(=O)O)oc1C,-5%
Cc1noc(C)c1COC(=O)CCc1nc2ccccc2c(=O)[nH]1,-2%
Cc1c(NC(=O)CSc2nc3ccccc3[nH]2)c(=O)n(-c2ccccc2)n1C,0%
CCOC(=O)CSc1nnnn1-c1cccc2ccccc12,5%
O=C1CC(c2ccc(F)cc2)Cc2nc(N3CCOCC3)ncc21 (centres undefined),-2%
CCc1c(O)nc(SCC(=O)Nc2ccc(OC)cc2)n(C2CCCCC2)c1=O,-3%
O=C(CCCOc1ccccc1)Nc1nccs1,-6%
COc1ccc(C(c2nnnn2Cc2cccs2)N2CCN(c3ccccc3F)CC2)cc1OC (centres undefined),-1%
CC(C)C(=O)Nc1cccc(C(=O)NCc2ccc3c(c2)OCO3)c1,-5%
CCOc1ccc2nc(NC(=O)CN3CCC(n4nnc5cc(F)ccc54)CC3)sc2c1,4%
O=C(CCn1cnc2ccccc2c1=O)Nc1ccc(S(=O)(=O)N2CCCC2)cc1,5%
OCCNc1nc2ccccc2n1-c1ccccc1,9%
CC(C(=O)NCC1CCCO1)N(C(=O)c1snc(C(N)=O)c1N)c1ccccc1 (centres undefined),?
CCNc1nc(Oc2ccc(C(=O)OC)cc2)nc(N(C)C)n1,-1%
CCCN1C2=NCCN2c2ccccc21,7%

# Taken from above.
# HSD17B inh result of `Cc1noc(C)c1COC(=O)CCc1nc2ccccc2c(=O)[nH]1` : -2%
# HSD17B inh result of `CC(=O)c1cc(C(=O)Nc2ccccc2C(=O)O)oc1C` : -5%
# HSD17B inh result of `O=C(CCCOc1ccccc1)Nc1nccs1` : -6%
# HSD17B inh result of `CCOC(=O)CSc1nnnn1-c1cccc2ccccc12` : 5%
# HSD17B inh result of `CCCN1C2=NCCN2c2ccccc21` : 7%

# The results go on.
SMILES,HSD17B inh
CCCn1c(-c2ccc(OC)cc2)nc2ccccc21,-16%
CCOC(=O)c1cnc2c(-c3ccccc3)cnn2c1N,25µM*
Cc1cccc(NC(=O)CSc2nnc(-c3ccc(S(=O)(=O)N4CCCC4)cc3)o2)c1,2%
O=c1[nH]cnc2nc3n(c12)CCCCC3,10%
O=C(NCCN1CCOCC1)c1ccc2c(c1)N(Cc1ccccc1)C(=O)CS2,-5%
CCN(CC)S(=O)(=O)c1cc(-c2nnc(-c3ccc(Br)cc3)o2)ccc1Cl,?
CCOC(=O)c1cnc2ccc(Br)cc2c1NCC(C)O (centres undefined),-1%
O=c1c2ccccc2nc(SCc2nnc(-c3ccccc3Br)o2)n1Cc1ccco1,-19%
Cn1ncc2c(NCCc3ccccc3)nc(Cl)nc21,10%[11.4 µM]
Cn1c(=O)c2c(nc(SCCCC#N)n2Cc2c(F)cccc2Cl)n(C)c1=O,0%
Cc1ccnc(NC(=O)C23CC4CC(CC(C4)C2)C3)c1,-4%
Cn1nnnc1SCC(=O)Nc1ccc(Oc2ccc(Cl)cc2)cc1,9%
CCOC(=O)c1ccccc1NC(=O)CSc1nc2c(c(=O)n(C)c(=O)n2C)n1C,-3%
COCCCNC(=O)CN(C1CCCCC1)S(=O)(=O)c1ccc(C)cc1,-2%
O=c1cc(CO)oc(C(Nc2ccccn2)c2ccc(C(F)(F)F)cc2)c1O (centres undefined),-12%
CC1(C)COCN1S(=O)(=O)c1ccc(C(=O)Nc2nnc(-c3ccc(Cl)s3)o2)cc1,-15%
CCn1cc(Br)c(C(=O)Nc2ccc(OC)cc2)n1,-2%
CCOC(=O)OCC1C=C[C@H](c2cc(-c3ccccc3)ccc2O)C(c2ccc(C(C)=O)cc2)O1 (some centres undefined),-4%[11.4 µM]
COc1ccc(NC(C)=O)cc1NC(=O)CSc1nnc(-c2ccncc2)n1C,2%
CCOc1cc(-c2noc(-c3ccncc3)n2)cc(Br)c1OC,-4%
Cc1ccc(-c2cc(C(=O)NCc3cccnc3)no2)cc1,-2%
COc1ccc(C2C(C(=O)NCCN3CCOCC3)c3ccccc3C(=O)N2C2CCCCC2)cc1 (centres undefined),8%
Cn1nnnc1SCC(=O)N1CCc2ccccc2C1,0%
Cc1nnc(SCc2ccc(Cl)cc2Cl)[nH]c1=O,5%
Cn1cc(-c2nc3cnc(N4CCNCC4)nc3n(-c3ccccc3)c2=O)c2ccccc21,-3%
O=C(Nc1nnc(C2CCCC2)s1)C1CCN(S(=O)(=O)c2ccc(Cl)cc2)CC1,6%
CC12CCCCC1(O)[N+](=O)C1=C(CCCC1)N2[O-] (centres undefined),-15%
CC(C)NC(=O)CSc1nnc2sc3ccccc3n12,21%
CCOc1ccccc1C(=O)NCC(=O)OCC(=O)N1C(C)CCCC1C (centres undefined),1%
COCCNC(=O)c1cc(-c2ccccc2OC)on1,?

# Filtered by structure: those above with two or more sulfur atoms (5)
SMILES,HSD17B inh
O=S(=O)(c1cccc(S(=O)(=O)N2CCCC2)c1)c1cccc(S(=O)(=O)N2CCCC2)c1,2%
Cc1cccc(NC(=O)CSc2nnc(-c3ccc(S(=O)(=O)N4CCCC4)cc3)o2)c1,2%
CC1(C)COCN1S(=O)(=O)c1ccc(C(=O)Nc2nnc(-c3ccc(Cl)s3)o2)cc1,-15%
O=C(Nc1nnc(C2CCCC2)s1)C1CCN(S(=O)(=O)c2ccc(Cl)cc2)CC1,6%
CC(C)NC(=O)CSc1nnc2sc3ccccc3n12,21%

# Later entries:
SMILES,HSD17B inh
CC(C)(C)C1CCc2c(sc(N)c2C(N)=O)C1 (centres undefined),-10%
CC(=O)OCCNC(=O)Cn1cnc2c1c(=O)n(C)c(=O)n2C,6%
Cc1ccc2oc(-c3ccccc3C(=O)O)cc(=O)c2c1,-30%
CC1=C2[C@H](/C=C(\C)C(=O)O)CC[C@@H](C)[C@H]2CC1,-6%
CCc1nnc(NC(=O)c2ccc(S(=O)(=O)NCC(C)C)cc2)s1,1%
Cc1ccc(-n2c(SCc3cc(=O)n4ccsc4n3)nnc2-c2cccnc2)c(C)c1,1%
CC(C)N=C=NC(C)C,5%
CCOC(=O)c1c(NC(=O)CN(CC)CC)sc2c1CCN(C(=O)OCC)C2,-26%
CCc1nnc(NC(=O)CCC(=O)N2CCN(Cc3ccc(Cl)cc3)CC2)s1,1%
CC1CCCC(NC(=O)COC(=O)Cc2cn3ccsc3n2)C1C (centres undefined),-27%
O=C(c1nn(Cc2ccccc2)c(=O)c2ccccc12)N1CCN(c2ccccn2)CC1,-6%
CCOC(=O)C(NS(=O)(=O)c1ccc(Br)cc1)C(C)C (centres undefined),-2%
COc1ccc(Cl)cc1-c1nc(-c2ccncc2)no1,4%
Cc1nc2nc(C)c(CCC(=O)NCCC3=CCCCC3)c(C)n2n1,-3%
Cc1cc(=O)n(-c2ccc(O)cc2)[nH]1,3%

# The final 3 records of the section before are carried over, then new ones follow.
SMILES,HSD17B inh
COc1ccc(Cl)cc1-c1nc(-c2ccncc2)no1,4%
Cc1nc2nc(C)c(CCC(=O)NCCC3=CCCCC3)c(C)n2n1,-3%
Cc1cc(=O)n(-c2ccc(O)cc2)[nH]1,3%
O=C(c1cccc(F)c1)N1CCN(S(=O)(=O)c2ccc(C(F)(F)F)cc2)CC1,-5%
COC(=O)[C@@]1(Cc2ccc(F)cc2)[C@H]2c3cc(C(=O)N(C)C)n(Cc4cc(F)c(F)c(F)c4)c3C[C@H]2CN1C(=O)c1ccccc1,3%
O=C(CN1C(=O)C2C3c4ccccc4C(c4ccccc43)C2C1=O)N1CCOCC1 (centres undefined),6%
CCOC(=O)N1CCN(C(=O)CCc2nc3sc4c(c3c(=O)[nH]2)CCCC4)CC1,6%
Nc1nc(Cc2ccccc2)nc(Cc2ccccc2)c1-c1ccccc1,-9%[11.4 µM]
Cc1[nH]n2c(=O)cc(Cc3ccccc3)nc2c1C#N,?
COc1cccc(CN=CC2=C(O)CC(C)(C)CC2=O)c1OC,-1%
COCCn1c(-c2cc(OC)c(OC)c(OC)c2)nc2nc3ccccc3nc21,8%
CC(C)OC(=O)CSc1nnc2n1C(C)(C)Cc1ccccc1-2,-1%
CCn1c(Cc2ccccc2)nnc1SCC(=O)Nc1ccc(N2CCOCC2)c(Cl)c1,-13%
CCOC(=O)N1CCC(N2Cc3cccc(C(=O)NCc4ccccc4OC)c3C2=O)CC1,-9%
CN(C)c1ccc(NC(=O)Cn2c(=O)n(Cc3ccccc3)c(=O)c3ccccc32)cc1,-6%
Cn1c(COc2ccccc2)nnc1SCCSc1nnc(COc2ccccc2)n1C,4%
O=C1CN(C(=O)c2ccco2)C(c2ccccc2)c2cc(Cl)ccc2N1 (centres undefined),-4%
COc1ccc(-c2nc(NC(=O)C3CCN(c4nc5ccccc5o4)CC3)sc2C)cc1,-8%
CCOC(=O)COc1ccc2c3c(c(=O)oc2c1C)CCC3,123%[activator]
O=C(Nc1nccs1)c1ccc(Cl)c(S(=O)(=O)N2CCOCC2)c1,-2%
CC1(C)Cc2c(sc3nc(-c4cc5ccccc5o4)n(N)c(=O)c23)CO1,-2%
C/C=C/COC(=O)c1[nH]c2c(c1C)C(=O)CC(c1ccco1)C2 (centres undefined),?
CCc1ccc(C(=O)COC(=O)CNC(=O)c2ccco2)cc1,?
O=C(O)c1cc(NCc2ccccc2C(F)(F)F)ccc1N1CCOCC1,-4%
COc1ccc(CNC(=O)C2CSC(=O)C2)cc1 (centres undefined),-2%
COc1ccc(-n2nnc3c(=O)n(CC(=O)N4CCCC4)cnc32)cc1,-3%
CCC1=C(OC(=O)N(CC)CC)N2C(=O)OC(=NCCOC)[C@]2(C)[C@H]2C1=CC[C@H]1C(=O)NC(=O)[C@H]12,3%
O=C(c1cccc2ccccc12)N1CCN(c2ccccc2F)CC1,-4%
CCOC(=O)c1c(O)c2c(n(Cc3ccco3)c1=O)CCCC2,0%
Cn1c(=O)[nH]c(=O)c2c1nc1n2CCCN1CCc1ccccc1,8%
COC(=O)c1cnn2c(C(F)(F)F)cc(-c3ccc(F)cc3)nc12,32µM*
CN(C)C(=O)c1ccc(NC(=O)c2cncc(Br)c2)cc1,1%
Cc1ccc(SCc2[nH]nc3c2C2(C(=O)N(C)c4ccccc42)C(C#N)=C(N)O3)cc1 (centres undefined),-4%
CCOC(=O)CSc1nc2cccnc2n1-c1ccc(F)cc1,-4%
C=CCOc1cccc(C2C(C(=O)c3ccc(C)o3)=C(O)C(=O)N2c2nccs2)c1 (centres undefined),?
C=CCn1c(SCCCc2ccccc2)nc2c1c(=O)[nH]c(=O)n2C,-14%
COCCNC(=O)c1ccc(CS(=O)(=O)c2c(Cl)cccc2Cl)o1,2%
O=C1OC2(CCCCC2)OC(=O)C1=CNc1ccc2c(c1)OCO2,1%
CCn1c(C)cc(=S)c2ccccc21,?
O=C(Nc1cccc(C(F)(F)F)c1)c1cccnc1N1CCN(CCO)CC1,-16%
N#CCSc1nc2ccc(N3CCCCC3)cc2c(=O)n1Cc1ccccc1,20µM*
COc1ccc(-n2ncc3c(NCc4ccco4)ncnc32)cc1,?
CNc1cc(-c2ccccc2CN(C)C)ncn1,25µM*
COCC(=O)NCc1nc2ccccc2[nH]1,1%
CCOC(=O)c1cnn(-c2nc(-c3ccccc3)nc3c2COC(C)(C)C3)c1N,3%
CCOC(=O)N1CCC(NC(=O)c2cc(C(=O)Nc3ccc(OCC)cc3)ccc2CO)CC1,8%
CC(=O)OCCN(CCOC(C)=O)c1c(C)[nH]c(=O)[nH]c1=O,-3%
CC=C(Cl)Cl,-1%
c1ccc2c(c1)C(=Nc1ccc(N=C3c4ccccc4-c4ccccc43)cc1)c1ccccc1-2,0%[11.4 µM]
CN1C[N+]([O-])=C(c2ccccc2)C1(C)C,13%
O=C(Cc1c(F)cccc1Cl)N1CCCC1,-2%
CCOc1ccccc1OCC(=O)OCC(=O)Nc1ncc(Cl)cc1Cl,-6%
O=C(Cc1c(O)c2ccccc2[nH]c1=O)NCc1cccc(F)c1,25µM*
O=S1(=O)N[C@H]2CC[C@@H]3NS(=O)(=O)N[C@H]4CC[C@H](N1)N4S(=O)(=O)N23,-7%[11.4 µM]
Cc1ccc(CCNC(=O)CCNS(=O)(=O)c2ccc3c(c2)oc(=O)n3C)cc1,-4%
CCN(CC)C(=O)N1CCC(NC(=O)Cc2ccccc2)CC1,-12%
Fc1ccc(-n2cnnn2)c(F)c1,-12%
